L3MBTL1 inh – blocks human L3MBTL1; AID 485360; actives 0.66% (n = 230,000); AlphaScreen L3MBTL1–H3K9me1 peptide binding; Potency, µM (highest dose often 57.1 µM), for inactives: at the top dose activity, negative = inhibition, usual class: inhibitors; further: nearly all actives have a fitted effect of over 60% in size
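AlphaScreen assay: L3MBTL1 (50 nM final) was preincubated 30 min at room temperature with biotinylated H3(1-15)K9me1 peptide (75 nM final), then 30 min with library compounds; streptavidin donor and nickel chelate acceptor beads (10 ug/mL final) added, 30 min dark.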
TRb-SRC2 inh – TRbeta-SRC2 interaction inhibition | AID 1469 | actives 0.065% (n = 280,000) | TRbeta-SRC2 peptide binding, fluorescence polarization; receptor liganded with 1 µM T3 | Potency, µM (titrated, usually from 106 µM), inactives show top-dose activity change, negative = inhibition, usual class: inhibitors;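 further: plate controls were bound peptide for no effect and peptide without receptor for full effect; nearly all actives have a fitted effect of over 50% in size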
Target sequence (P10828 whole entry, looked up): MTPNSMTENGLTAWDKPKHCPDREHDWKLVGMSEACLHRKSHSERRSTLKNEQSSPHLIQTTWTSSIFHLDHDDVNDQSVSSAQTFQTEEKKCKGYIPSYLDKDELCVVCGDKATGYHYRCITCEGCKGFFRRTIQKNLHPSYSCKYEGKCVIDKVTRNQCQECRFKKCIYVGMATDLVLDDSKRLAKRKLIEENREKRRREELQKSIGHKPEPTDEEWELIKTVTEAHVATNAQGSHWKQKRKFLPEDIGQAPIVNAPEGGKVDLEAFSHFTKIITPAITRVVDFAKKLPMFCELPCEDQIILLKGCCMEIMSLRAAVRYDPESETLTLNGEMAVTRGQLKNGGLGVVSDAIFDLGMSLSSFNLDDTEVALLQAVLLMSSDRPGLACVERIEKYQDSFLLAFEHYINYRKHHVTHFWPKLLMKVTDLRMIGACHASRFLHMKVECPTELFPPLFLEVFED
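Compounds were added to 0.6 uM TRb ligand-binding domain and 20 nM Texas Red-labeled SRC2 peptide in Tris buffer containing 1 uM T3, incubated 5 hr at ambient temperature, then read by fluorescence polarization.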
Tau fluor counter – counter-screen for tau fibril formation inhibitors | tau K18 P301L Alexa594 fluorescence, heparin fibrillization | Potency, µM (series often up to 57.7 µM), for inactives: at the top dose activity change, negative = decrease | actives 0.93% (n = 280,000); further: nearly all actives have a fitted effect of over 55% in size
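Human tau K18 P301L (15 uM unlabeled, 0.24 uM Alexa 594-labeled) in 100 mM sodium acetate pH 7 with 20 uM heparin, 6 hr at 37 C. ThT 30 uM added, 1 hr ambient; Alexa 594 FP and total fluorescence read at 555/632 nm.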
Tau fibril ThT – inhibitors of human tau fibril formation, thioflavin T binding; P10636; recombinant tau K18 P301L (four-repeat tau fragment), heparin-induced fibrillization, ThT fluorescence; Potency, µM (top dose mostly 57.4 µM), without a hit: at the top dose activity, negative = inhibition, actives largely listed as inhibitors; actives 2.1% (n = 270,000); AID 1460; further: nearly all actives have a fitted effect of over 55% in size
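In this qHTS, human K18 P301L tau is incubated with compound and heparin for 6 hr at 37 C, and Thioflavin T fluorescence then reports fibril load.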
GLA spleen mod – inhibitors or activators of human alpha-galactosidase in spleen homogenate; P06280; human spleen homogenate, 4MU-alpha-Gal fluorescence, 40 min; Potency, µM (titrated, usually from 80 µM), for inactives: at the top dose activity change, negative = inhibition, usual class: inhibitors; actives 0.008% (n = 240,000); AID 2107;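 further: 0% = enzyme with vehicle and -100% = no enzyme basal signal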
Target sequence (P06280 32-429 limits assumed): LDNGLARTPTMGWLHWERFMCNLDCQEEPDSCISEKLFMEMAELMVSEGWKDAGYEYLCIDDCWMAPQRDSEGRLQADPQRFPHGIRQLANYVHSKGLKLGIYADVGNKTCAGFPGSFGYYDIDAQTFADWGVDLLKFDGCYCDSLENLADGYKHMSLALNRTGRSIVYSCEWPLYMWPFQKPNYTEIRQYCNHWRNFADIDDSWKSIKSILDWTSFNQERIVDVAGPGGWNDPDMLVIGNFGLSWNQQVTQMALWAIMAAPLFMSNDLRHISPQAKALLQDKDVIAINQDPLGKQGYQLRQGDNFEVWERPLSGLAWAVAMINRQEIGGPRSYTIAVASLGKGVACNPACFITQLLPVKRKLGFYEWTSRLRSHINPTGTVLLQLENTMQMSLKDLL
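Fluorogenic readout (Ex 365/Em 440 nm) of 4-methylumbelliferone released from 1 mM 4-MU-alpha-galactoside by spleen homogenate, 40 min at 37C, pH 5.0. Data normalized to no-enzyme and enzyme controls; Hill-equation AC50 from compound titrations.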
TR SRC2 fluor cs – alters Texas Red total fluorescence, flagging assay interference; actives 0.29% (n = 280,000); Potency, µM (doses to about 106 µM), without a hit: at the highest dose fluorescence change, negative = quenching; TRb/SRC2 Texas Red total fluorescence interference; active means well fitted curve in either direction with a large enough effect; inconclusive means small, poorly fitted or top-dose-only effect
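Human TRβ ligand-binding domain (0.6 uM) and Texas Red SRC2 peptide (20 nM) in Tris buffer with 1 uM T3 and 5% DMSO were incubated with pinned compound for 5 hr at ambient temperature. Total fluorescence was computed as S + 2P (555/632 nm).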
Tau FP inhib – blocks human tau fibril formation measured by polarization; P10636; K18 P301L tau heparin fibrillization, Alexa594 FP, 6 h; Potency, µM (doses to about 57.7 µM), for inactives: at the top dose activity, negative = inhibition, usual class: inhibitors; actives 0.39% (n = 280,000); further: nearly all actives have a fitted effect of over 55% in size
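Quantitative HTS format: compounds meet 15 uM recombinant K18 P301L tau and Alexa 594-tau tracer in 100 mM sodium acetate pH 7; 20 uM heparin triggers fibrillization at 37 C over 6 hr; FP gives the signal.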
* = called active by the depositor; ? = inconclusive; . = not tested or not shown; & = joins results of further samples; ! = not confirmed by another sample; [ ] = another dose, or the depositor's remark. Unless noted, the call rests on the fitted dose curve; in most records, active means well fitted curve in the direction sought with a large enough effect; inconclusive means small, poorly fitted or top-dose-only effect, or another doubt; inactive means no such curve, though single readings can be large; an effect the other way counts as inactive or inconclusive. Unless noted, on the % scale 0 is the no-effect control and ±100 the full control effect; potency means the concentration at half of the fitted maximal effect.

The opening 12 entries as a preview:
Below each compound – L3MBTL1 inh	TRb-SRC2 inh	Tau fluor counter	Tau fibril ThT	GLA spleen mod	TR SRC2 fluor cs	Tau FP inhib
CCCCC(=O)Nc1nnc(CCOC)s1
→ 6%	-7%	7%	8%	7%	-2%	3%
O=C1CC(c2ccccc2)CC(O)=C1C=Nc1ccccc1Cl (centres undefined)
→ 1%	8%	4%	11%	-2%	-1%	-1%
CC1(C)Cc2c(c(N3CCOCC3)nc3snc(N)c23)CO1
→ 11%	3%	-12%	13µM*	-6%	-3%	?
Cc1ccc(/C=C/C(=O)O)cc1S(=O)(=O)NCC1CCCO1 (centres undefined)
→ 9%	-6%	13%	2%	-5%	0%	6%
CCOC(=O)c1nnc(-c2ccccc2)nc1NCc1ccccc1
→ -2%	0%	-2%	-11%	-1%	-3%	5%
C=CCCCOc1ccc(C(=O)O)cc1
→ 37%[activator]	6%	0%	5%	-5%	9%	-1%
Cc1ccc(N2C(=O)c3cccc4c(N5CCN(C)CC5)ccc(c34)C2=O)c2cccnc12
→ 9%	5%	-9%	1%	-28%	0%	-6%
O=C(Nc1ccc2c(c1)OCO2)c1cc2ncc(Br)cn2n1
→ .	-1%	-15%	?	-6%	-4%	12%
O=C(CN(Cc1cccs1)C(=O)CCC(=O)Nc1nccs1)NCc1ccccc1
→ 5%	6%	-8%	-8%	4%	-4%	-2%
COC(=O)C1=C(C)NC(=O)C1(NC(=O)CN1CCCC1=O)C(F)(F)F (centres undefined)
→ 13%[11.4 µM]	7%	5%	9%	1%	0%	2%
CCN1C=C(Cc2ccccc2C)C2=C(C1)C(c1ccccc1C)C(C#N)=C(N)O2 (centres undefined)
→ .	?	-13%	?	2%	45µM*[fluorescent]	-9%
O=C1CC(N2CCC(c3nc4ccccc4o3)CC2)C(=O)N1c1ccc(F)cc1 (centres undefined)
→ 1%	0%	3%	-4%	-2%	0%	1%

The whole of this part, from the start:
Below each compound – L3MBTL1 inh	TRb-SRC2 inh	Tau fluor counter	Tau fibril ThT	GLA spleen mod	TR SRC2 fluor cs	Tau FP inhib
CCCCC(=O)Nc1nnc(CCOC)s1
→ 6%	-7%	7%	8%	7%	-2%	3%
O=C1CC(c2ccccc2)CC(O)=C1C=Nc1ccccc1Cl (centres undefined)
→ 1%	8%	4%	11%	-2%	-1%	-1%
CC1(C)Cc2c(c(N3CCOCC3)nc3snc(N)c23)CO1
→ 11%	3%	-12%	13µM*	-6%	-3%	?
Cc1ccc(/C=C/C(=O)O)cc1S(=O)(=O)NCC1CCCO1 (centres undefined)
→ 9%	-6%	13%	2%	-5%	0%	6%
CCOC(=O)c1nnc(-c2ccccc2)nc1NCc1ccccc1
→ -2%	0%	-2%	-11%	-1%	-3%	5%
C=CCCCOc1ccc(C(=O)O)cc1
→ 37%[activator]	6%	0%	5%	-5%	9%	-1%
Cc1ccc(N2C(=O)c3cccc4c(N5CCN(C)CC5)ccc(c34)C2=O)c2cccnc12
→ 9%	5%	-9%	1%	-28%	0%	-6%
O=C(Nc1ccc2c(c1)OCO2)c1cc2ncc(Br)cn2n1
→ .	-1%	-15%	?	-6%	-4%	12%
O=C(CN(Cc1cccs1)C(=O)CCC(=O)Nc1nccs1)NCc1ccccc1
→ 5%	6%	-8%	-8%	4%	-4%	-2%
COC(=O)C1=C(C)NC(=O)C1(NC(=O)CN1CCCC1=O)C(F)(F)F (centres undefined)
→ 13%[11.4 µM]	7%	5%	9%	1%	0%	2%
CCN1C=C(Cc2ccccc2C)C2=C(C1)C(c1ccccc1C)C(C#N)=C(N)O2 (centres undefined)
→ .	?	-13%	?	2%	45µM*[fluorescent]	-9%
O=C1CC(N2CCC(c3nc4ccccc4o3)CC2)C(=O)N1c1ccc(F)cc1 (centres undefined)
→ 1%	0%	3%	-4%	-2%	0%	1%
COc1ccc(C(c2sc3nc(C)nn3c2O)N2CCN(Cc3ccccc3)CC2)cc1OC (centres undefined)
→ 0%	2%	-3%	-9%	1%	1%	0%
CN(C)C(=O)c1ccc(-c2nc(Nc3ccc(F)cc3)c3ccccc3n2)cc1
→ .	-1%	?	-11%	21%	-2%	?
COc1ccc(CNn2c(C)nc3ccccc3c2=O)cc1
→ 3%	-6%	-1%	-10%	2%	-5%	-1%
O=C(Nc1ccc(S(=O)(=O)N2CCN(Cc3ccccc3)CC2)cc1)c1cnccn1
→ -1%	1%	-13%	3%	4%	0%	2%
COCCn1c(=O)c(-c2ccc(OC)cc2)nc2cnc(OC)nc21
→ .	.	.	.	-4%	.	.
COc1cc(NC(=O)CSc2nnc(Cn3nnc4ccccc43)n2C)cc(OC)c1
→ 2%	3%	1%	5%	0%	0%	-6%
O/N=C\c1cccn1-c1nccs1
→ 3%	0%	3%	2%	3%	-3%	1%
C/C(=N\Nc1ccc(C(F)(F)F)cc1[N+](=O)[O-])C1CC1
→ -23%	-2%	-7%	-13%	-3%	-3%	9%
CNCCOc1ccccc1-c1ccccc1
→ .	-3%	-9%	-3%	4%	-3%	4%
O=C(O)c1cc2ncc(CCO)cn2n1
→ -1%	-9%	5%	2%	-1%	0%	9%
COc1ccccc1N1CCN(c2cc(N3CCCC3)nc(C)n2)CC1
→ -10%	-3%	2%	-7%	3%	-1%	-2%
COC(=O)c1ccc(CSc2nnc(NC(C)C)s2)o1
→ 2%	7%	12%	10%	-4%	0%	10%
CCOc1ccc(CCNc2ccc3nnc(-c4ccccc4)n3n2)cc1OCC
→ 2%	7%	-13%	-17%	-6%	-1%	-2%
Cn1c(N)c(C(=O)COC(=O)CCCOc2ccc(Cl)cc2Cl)c(=O)n(C)c1=O
→ 1%	3%	-28%	2%	2%	-2%	-11%
CCCCCOc1ccc(CSC2=NCCN2)cc1[N+](=O)[O-]
→ 6%	-3%	-13%	?	0%	-1%	4%
C=CCC(C(=O)OC)(C(=O)OC)c1ccc([N+](=O)[O-])cn1
→ -1%	2%	-5%	-3%	-8%	-5%	-11%
O=C(N/N=C/c1cn(-c2ccccc2)nc1-c1cccs1)c1ccncc1
→ 5%	2%	?	?	5%	2%	?
C/C(=N/NC(=O)CNC(=O)c1cccnc1)c1ccco1
→ -3%	-2%	-13%	-7%	3%	0%	-3%
CCN(CC)N=Nc1ccc(C(=O)O)cc1
→ 7%	0%	-17%	?	8%	-1%	?
CCN(C(C)=O)c1nc(CCl)cs1
→ .	6%	2%	-1%	9%	-2%	4%
CCOC(=O)CSc1nnc(CNC(=O)Cc2ccccc2)n1C
→ 2%	1%	-7%	-6%	1%	1%	-3%
CC(C)(C)S(=O)(=O)/C(C#N)=N/Nc1ccc(Cl)cc1
→ -11%	0%	-6%	-2%	-2%	3%	0%
Cc1ccc(C(=O)Nc2nc(=O)n(C(=O)CC(C)C)s2)cc1
→ 5%	10%	-12%	?	2%	0%	?
COC(=O)[C@H]1C[C@@H]1[C@H](NC(C)=O)c1ccccc1
→ .	-8%	-2%	1%	-12%	-22%	-4%
CC(CC(=O)NCc1ccccc1)C1CCCO1 (centres undefined)
→ 7%	-7%	9%	3%	-13%	-4%	9%
O=C(NC12CC3CC(CC(C3)C1)C2)c1cnccn1
→ 4%	-3%	4%	-2%	-4%	-4%	4%
CNC[C@H](O)c1ccc(O)c(O)c1
→ ?	1%&-3%&1%&3%&-2%&-1%	?	14µM*!	-1%&-2%&-3%&-8%&5%&3%	1%&-1%&-2%&-2%&-1%&0%	13µM*!
O=C(NCCN1CCN(c2ccccc2)CC1)C1CCN(S(=O)(=O)c2cccs2)CC1
→ -4%	-2%	?	?	3%	-3%	-3%
O=C(CNc1cccc2ccccc12)N/N=C/C(Br)=C/c1ccccc1
→ -1%	-3%	14µM*[quencher]	?	3%	2%	1%
NC(=O)C1(N2CCCCC2)CCN(C(=S)NC2CCCC2)CC1
→ -5%	-10%	5%	7%	7%	-4%	9%
O=C1c2ccccc2C(=O)C12OC(c1ccccc1)C1(C(=O)c3ccccc3C1=O)C2c1cccc([N+](=O)[O-])c1 (centres undefined)
→ 3%	8%	-10%	-2%	1%	-1%	-1%

Record cards, from the list above.
Cc1ccc(C(=O)Nc2nc(=O)n(C(=O)CC(C)C)s2)cc1 as listed: L3MBTL1 inh: 5%; TRb-SRC2 inh: 10%; Tau fluor counter: -12%; Tau fibril ThT: ?; GLA spleen mod: 2%; TR SRC2 fluor cs: 0%; Tau FP inhib: ?
CCOC(=O)CSc1nnc(CNC(=O)Cc2ccccc2)n1C as listed: L3MBTL1 inh: 2%; TRb-SRC2 inh: 1%; Tau fluor counter: -7%; Tau fibril ThT: -6%; GLA spleen mod: 1%; TR SRC2 fluor cs: 1%; Tau FP inhib: -3%

Compound activity deposited in PubChem by National Center for Advancing Translational Sciences (NCATS).

Not all compounds are listed (hit frequency here may not be typical).
